# Bioassay records as filed in PubChem.
# rRNA inh HTS: reduced GFP signal of wild-type E. coli, primary screen, bacterial rRNA inhibitor project, GFP/RFP fluorescence, OD600, single point. E. coli WT GFP vs humanized-ribosome RFP mutants, 24 h; active compounds read low; DMSO median 0, no signal -100. GFP signal change (wild-type ribosome), % (concentration not given with the values). actives 1.6% (n = 350,000). AID 720706, 2013;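 active means significant combined selectivity score with lowered wild-type GFP, culture density cut under 30%, mutant RFP and density less affected; inactive means any of these conditions unmet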; further: one replicate is shown; some compounds called inactive have numbers as strong as hits
# MLL AF4-AF9 inh: inhibitors of AF4 peptide binding to AF9, primary screen, biochemical, AlphaScreen, biotin-AF4 peptide, FLAG-AF9, single point; inhibition, % at 10 µM; actives 0.47% (n = 350,000); Protein AF-9 (Homo sapiens), P42568;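 active means every replicate reaching a set inhibition limit, whatever the replicate mean, cut at about 25% in these data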;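 further: 0% = plate neutral control median and 100% = total signal loss; the record names both 10 and 1 µM as test concentration; the first replicate is given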
# Target sequence (P42568 whole entry, looked up): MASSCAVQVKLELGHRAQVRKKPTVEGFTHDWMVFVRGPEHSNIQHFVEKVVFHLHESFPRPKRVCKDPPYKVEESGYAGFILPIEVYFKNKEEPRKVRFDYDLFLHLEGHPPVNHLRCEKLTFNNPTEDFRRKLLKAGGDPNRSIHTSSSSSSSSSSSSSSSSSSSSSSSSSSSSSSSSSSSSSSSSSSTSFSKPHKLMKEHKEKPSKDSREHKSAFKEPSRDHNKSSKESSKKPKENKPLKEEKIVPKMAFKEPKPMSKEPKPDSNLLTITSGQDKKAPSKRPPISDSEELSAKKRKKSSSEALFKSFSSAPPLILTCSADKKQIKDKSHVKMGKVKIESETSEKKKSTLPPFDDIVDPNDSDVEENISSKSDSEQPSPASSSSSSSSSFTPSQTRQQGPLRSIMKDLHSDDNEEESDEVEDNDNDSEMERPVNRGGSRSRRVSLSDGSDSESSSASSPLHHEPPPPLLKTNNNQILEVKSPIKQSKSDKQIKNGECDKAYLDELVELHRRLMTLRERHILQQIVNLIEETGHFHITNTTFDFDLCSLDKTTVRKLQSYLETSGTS
# rRNA inh HTS OD600: second read-out of rRNA inh HTS, no call of its own (marks repeat the call); OD600 change, %; measured here: OD600 growth;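 optical density of the mix in the first replicate; 0 = DMSO median and -100 = no signal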
# rRNA inh HTS RFP: recorded beside rRNA inh HTS, whose call it bears; RFP signal change, %; measured here: RFP humanized mutant strains;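 first replicate; 0 = DMSO median and -100 = no signal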
# * hit, by the source's call; & = joins results of further samples. A portion of the library (hit frequency here may not be typical).
# Start of the listing, in advance:
SMILES,rRNA inh HTS,rRNA inh HTS OD600,rRNA inh HTS RFP,MLL AF4-AF9 inh
C[C@H](CO)N1C[C@H](C)[C@@H](CN(C)C(=O)Oc2ccc3ccccc3c2)OCc2cn(nn2)CCCC1=O,4.2&-4.1,12.7&-5.0,2.6&-1.7,1.8&2.3&1.4
OC[C@@H]1[C@@H]2c3ccccc3NC[C@@H]2N1Cc1cccnc1,-0.3,2.0,0.6,-2.8
O=C(O)[C@H]1[C@H](CO)[C@H]2Cn3c(ccc(-c4ccccc4F)c3=O)[C@@H]1N2C(=O)Nc1ccccc1,-0.6,1.5,-5.5,0.6
Cc1ccccc1-c1ccc([C@H]2[C@@H](CO)N3CCCCN(C(=O)Cc4ccccn4)C[C@@H]23)cc1,-2.8,-3.3,1.5,-5.6
COC(=O)C12CCc3cc(OC)ccc3C1=CC(=O)C2 (stereo unspecified),23.9,16.0,2.0,-6.0
C[C@H]1CN([C@@H](C)CO)C(=O)CCCn2cc(nn2)CO[C@@H]1CN(C)C(=O)Oc1ccc2ccccc2c1,-1.6,-3.9,0.2,0.6
COc1ccc(-c2ccc([C@H]3[C@@H](CO)N4CCCCN(C(=O)Cc5ccncc5)C[C@H]34)cc2)cc1,1.7,16.6,-2.9,0.9
CSCCC(c1nnnn1-c1c(C)cccc1C)N1CCC(n2c(=O)[nH]c3ccccc32)CC1 (stereo unspecified),24.5,20.1,-1.3,1.6
COc1cccc(-c2ccc([C@H]3[C@@H](CO)N4CCCCN(C(=O)Cc5ccncc5)C[C@H]34)cc2)c1,-2.2,3.4,4.4,-3.7
CCOC(=O)[C@]12Cc3c(cc(OC)c(OC)c3OC)[C@H]1N(Cc1ccccc1)C(=O)c1ccccc12,-14.2,-12.6,-10.2,3.2
COC(=O)[C@H]1[C@H](CO)[C@H]2Cn3c(cccc3=O)[C@@H]1N2C(=O)C1CC1,0.0,5.4,-0.7,1.8

# The listing, previewed entries included:
SMILES,rRNA inh HTS,rRNA inh HTS OD600,rRNA inh HTS RFP,MLL AF4-AF9 inh
C[C@H](CO)N1C[C@H](C)[C@@H](CN(C)C(=O)Oc2ccc3ccccc3c2)OCc2cn(nn2)CCCC1=O,4.2&-4.1,12.7&-5.0,2.6&-1.7,1.8&2.3&1.4
OC[C@@H]1[C@@H]2c3ccccc3NC[C@@H]2N1Cc1cccnc1,-0.3,2.0,0.6,-2.8
O=C(O)[C@H]1[C@H](CO)[C@H]2Cn3c(ccc(-c4ccccc4F)c3=O)[C@@H]1N2C(=O)Nc1ccccc1,-0.6,1.5,-5.5,0.6
Cc1ccccc1-c1ccc([C@H]2[C@@H](CO)N3CCCCN(C(=O)Cc4ccccn4)C[C@@H]23)cc1,-2.8,-3.3,1.5,-5.6
COC(=O)C12CCc3cc(OC)ccc3C1=CC(=O)C2 (stereo unspecified),23.9,16.0,2.0,-6.0
C[C@H]1CN([C@@H](C)CO)C(=O)CCCn2cc(nn2)CO[C@@H]1CN(C)C(=O)Oc1ccc2ccccc2c1,-1.6,-3.9,0.2,0.6
COc1ccc(-c2ccc([C@H]3[C@@H](CO)N4CCCCN(C(=O)Cc5ccncc5)C[C@H]34)cc2)cc1,1.7,16.6,-2.9,0.9
CSCCC(c1nnnn1-c1c(C)cccc1C)N1CCC(n2c(=O)[nH]c3ccccc32)CC1 (stereo unspecified),24.5,20.1,-1.3,1.6
COc1cccc(-c2ccc([C@H]3[C@@H](CO)N4CCCCN(C(=O)Cc5ccncc5)C[C@H]34)cc2)c1,-2.2,3.4,4.4,-3.7
CCOC(=O)[C@]12Cc3c(cc(OC)c(OC)c3OC)[C@H]1N(Cc1ccccc1)C(=O)c1ccccc12,-14.2,-12.6,-10.2,3.2
COC(=O)[C@H]1[C@H](CO)[C@H]2Cn3c(cccc3=O)[C@@H]1N2C(=O)C1CC1,0.0,5.4,-0.7,1.8
COC(=O)[C@H]1[C@H](CO)[C@H]2Cn3c(ccc(-c4cccc(F)c4)c3=O)[C@@H]1N2Cc1cccnc1,-1.0,-1.9,-1.6,2.1
Cc1ccc(S(=O)(=O)N2Cc3cc(-c4cccc(F)c4)ccc3-n3nncc3C2)cc1,8.0,10.2,-0.9,-0.9
COc1ccc(-c2ccc([C@@H]3[C@@H](CO)N4CCCCN(C(=O)Cc5ccncc5)C[C@@H]34)cc2)cc1,4.6,8.5,-0.2,-1.6
O=C1NCN(c2ccccc2)C12CCN(C(c1nnnn1C1CCCCC1)C1CC1)CC2 (stereo unspecified),20.6,12.6,-0.5,1.7
COC(=O)[C@H]1N[C@H]2c3ccc(C4=CCCC4)c(=O)n3C[C@H]2[C@@H]1CO,2.1,1.1,1.8,-5.2
CCCC#Cc1ccc([C@@H]2[C@H](CO)N3CCCCN(C(=O)Cc4ccccn4)C[C@@H]23)cc1,0.8,-4.7,1.1,10.8
CN1[C@@H]2CNc3ccccc3[C@@H]2[C@@H]1CO,6.5,15.6,-0.1,-2.0
O=C1NCN(c2ccccc2)C12CCN(C(c1cc3ccccc3o1)c1nnnn1Cc1ccccc1)CC2 (stereo unspecified),12.1,-0.3,1.3,-53.5
Cc1nc2ccccc2c(=O)n1-c1nccs1,4.0,-2.0,0.1,-6.8
C[C@]12CCC3C(CC[C@H]4C[C@H](O)CC[C@]34C)C1C[C@@H](O)[C@H]2O (stereo partly specified),-31.5,-47.4,7.3,-1.7
Cc1cccc(C)c1-n1nnnc1C(C1CC1)N1CCC(n2c(=O)[nH]c3ccccc32)CC1 (stereo unspecified),13.8,12.1,-1.9,5.0
CSCCC(c1nnnn1C1CCCCC1)N1CCC(n2c(=O)[nH]c3ccccc32)CC1 (stereo unspecified),-2.5,-5.1,-1.7,33.9*
O=C1c2ccccc2-n2nncc2C2c3cc(Br)ccc3CCN12 (stereo unspecified),-9.2,-4.7,-2.8,-4.1
CCOC(=O)[C@]12Cc3ccc(C)cc3[C@H]1N(C1CCCCC1)C(=O)c1ccccc12,-29.4,-68.4,-15.1,-0.4

# Following part.
SMILES,rRNA inh HTS,rRNA inh HTS OD600,rRNA inh HTS RFP,MLL AF4-AF9 inh
COc1ccc(C#Cc2ccc([C@@H]3[C@@H](CO)N4CCCCN(C(=O)Cc5ccncc5)C[C@H]34)cc2)cc1,-20.1,-60.8,9.8,-3.3
COC(=O)[C@H]1[C@H](CO)[C@H]2Cn3c(ccc(C4=CCCCC4)c3=O)[C@@H]1N2CCc1ccccc1,-7.5,-13.7,2.8,2.4
COc1ccc(C#Cc2ccc([C@H]3[C@@H](CO)N4CCCCN(C(=O)Cc5ccccc5)C[C@H]34)cc2)cc1,-53.8,-67.2,-0.9,8.3
C[C@@H]1CN([C@@H](C)CO)C(=O)c2c(c3ccccc3n2C)-c2ccccc2CO[C@H]1CN(C)C(=O)Oc1ccccc1,-3.6,-11.0,7.3,10.6
C[C@@H]1CN([C@@H](C)CO)C(=O)CCCn2nncc2CO[C@@H]1CN(C)C(=O)Oc1cccc2ccccc12,2.6&-2.4,-2.9&-8.6,-2.3&0.7,1.1&-2.1
COC(=O)[C@@H]1[C@@H](CO)[C@@H]2Cn3c(ccc(-c4cccc(F)c4)c3=O)[C@H]1N2C(=O)CC1CC1,1.1,-2.7,-0.4,-0.2
COc1ccc(C(=O)C2CCCN(CC3CCCCC3)C2)cc1OC (stereo unspecified),1.5,-3.8,-2.5,-1.9
CCCCn1nnnc1C(c1cccs1)N1CCC2(CC1)C(=O)NCN2c1ccccc1 (stereo unspecified),-29.9,-34.5,-2.4,8.0
CCOC(=O)[C@]12Cc3c(cc(OC)c(OC)c3OC)[C@H]1N(C(C)C)C(=O)c1cc(OC)ccc12,-44.0,-69.3,-16.6,-3.1
O=C1NCN(c2ccccc2)C12CCN(C(c1ccccc1)c1nnnn1Cc1ccccc1)CC2 (stereo unspecified),-20.7*,-5.6*,4.1*,5.3
O=C(Cc1ccncc1)N1CCCCN2[C@H](C1)[C@H](c1ccc(C#Cc3ccccc3F)cc1)[C@@H]2CO,-3.1,-14.7,0.6,-6.0
O=C(Cc1cccnc1)N1CCCCN2[C@@H](CO)[C@H](c3ccc(C#CC4CCCC4)cc3)[C@@H]2C1,-57.9,-74.7,-7.5,6.5
N#Cc1ccc(-c2ccc([C@H]3[C@H]4CN(C(=O)Cc5ccccc5)CCCCN4[C@H]3CO)cc2)cc1,10.5,-2.7,-1.2,-6.6
N#Cc1ccc2nc(-c3ccc(CN4CCC(n5c(=O)[nH]c6ccccc65)CC4)cc3)c(-c3ccccc3)nc2c1,-7.1,-7.3,0.4,-0.1
N#Cc1ccc(-c2ccc([C@H]3[C@@H](CO)N4CCCCN(C(=O)Cc5ccccc5)C[C@H]34)cc2)cc1,-2.0,-29.6,8.8,-2.9
O=C(O)[C@@H]1[C@@H](CO)[C@@H]2Cn3c(ccc(C4=CCCC4)c3=O)[C@H]1N2C(=O)Cc1ccccn1,0.9,-3.8,1.6,0.6
CO[C@H]1C=CCCC=CC(=O)O[C@H]([C@H](C)C(=O)CCCC2CC(=O)NC(=O)C2)C(C)=C[C@@H](C)[C@@H]1O,5.2,10.3,-4.3,-1.3
C[C@H]1CN([C@@H](C)CO)C(=O)c2c(c3ccccc3n2C)-c2ccccc2CO[C@@H]1CN(C)C(=O)Oc1ccccc1,-0.2,0.2,13.8,2.7
CSCCC(c1nnnn1Cc1ccccc1)N1CCC2(CC1)C(=O)NCN2c1ccccc1 (stereo unspecified),-17.4,-34.8,0.6,2.4
CCCCn1nnnc1C(CC)N1CCC2(CC1)C(=O)NCN2c1ccccc1 (stereo unspecified),13.0,10.9,0.9,-1.3
COc1cc(C2c3cc(O)c(OC)cc3CC3C(=O)OCC32)ccc1O (stereo unspecified),-5.1,-5.2,-1.8,-2.5
COc1ccc(OC(=O)N(C)C[C@H]2OCc3ccccc3-c3c(n(C)c4ccccc34)C(=O)N([C@H](C)CO)C[C@H]2C)cc1,-2.7,-10.6,4.8,6.1
CC(=O)OC1CCC2(C)C(CCC3C2CC(=O)C2(C)C3CC(N3CC3)C2C(C)=O)C1 (stereo unspecified),-25.1,-38.5,1.8,1.4
CCc1cc2c(cc1-c1csc(C/C(N)=N/O)n1)C(C)(C)CCC2(C)C,-10.1,-41.0,11.2,3.9
COC(=O)[C@H]1[C@H](CO)[C@H]2Cn3c(ccc(-c4cccc(F)c4)c3=O)[C@@H]1N2Cc1ccncc1,0.3,-1.9,0.6,-5.0

# Carrying on:
SMILES,rRNA inh HTS,rRNA inh HTS OD600,rRNA inh HTS RFP,MLL AF4-AF9 inh
COC(=O)[C@@]1(Sc2ccc(C)cc2)CC(=O)N(P(=O)(OC)OC)[C@@H]1c1ccccc1,0.8,-2.6,5.7,-13.4
O=C1NCN(c2ccccc2)C12CCN(C(c1cccc3ccccc13)c1nnnn1-c1ccc3c(c1)OCCO3)CC2 (stereo unspecified),24.8,15.5,2.0,-0.3
COc1ccc(-c2ccc([C@@H]3[C@H](CO)N4CCCCN(C(=O)Cc5ccncc5)C[C@@H]34)cc2)cc1,1.0,6.1,-0.1,-3.2
CCOC(=O)[C@]12Cc3cc4c(cc3[C@H]1N(Cc1ccccc1)C(=O)c1ccccc12)OCO4,-6.7,-0.2,-4.3,-0.8
O=C1c2cccc(N3CCNCC3)c2C2CCCCN12 (stereo unspecified),15.4,9.2,1.8,-7.1
C/C=C/c1ccc(C2[C@@H]3CN(C(=O)C4CCCC4)C[C@H]2N3)cc1 (stereo partly specified),5.3&3.8,15.0&-7.7,-1.8&3.5,-0.4&6.5
CCC(=O)N1[C@@H]2Cn3c(ccc(-c4cccc(F)c4)c3=O)[C@H]1[C@@H](C(=O)OC)[C@@H]2CO,-1.9,4.7,-0.1,0.5
O=C(Cc1ccccc1)N1CCCCN2[C@@H](CO)[C@@H](c3ccc(C#CC4(O)CCCC4)cc3)[C@@H]2C1,-2.0,-3.3,0.1,-3.5
COC(=O)[C@H]1[C@H](CO)[C@H]2Cn3c(ccc(C4=CCCCC4)c3=O)[C@@H]1N2C(=O)Cc1ccccn1,1.8,3.6,-3.1,3.9
CC=Cc1ccc2n(c1=O)C[C@H]1[C@H](CO)[C@@H](C(=O)N(C)C)[C@@H]2N1C (mixture of isomers),10.2,24.1,-7.1,-0.3
Cc1ccc(N)cc1Cl,10.9,19.0,-1.2,-0.2
COC(=O)[C@H]1[C@H](CO)[C@H]2Cn3c(ccc(-c4cccc(OC)c4)c3=O)[C@@H]1N2C(=O)c1cnccn1,-0.6,1.7,-0.8,0.1
COc1cc2oc(=O)c(CC(=O)N3C[C@H]4C[C@@H](C3)c3cccc(=O)n3C4)c(C)c2cc1Cl,-0.2,-1.4,-1.4,-0.8
O=c1[nH]c2ccccc2n1C1CCN(Cc2ccc(-c3nc4ccc(F)cc4nc3-c3ccccc3)cc2)CC1,-4.2,-2.3,1.6,0.9
COC(=O)[C@@H]1[C@@H](CO)[C@@H]2Cn3c(ccc(C4=CCCCC4)c3=O)[C@H]1N2Cc1cccnc1,2.2,2.6,-0.1,-6.1
COc1cc(OC)c(OC)cc1C=O,8.4,17.4,0.9,-2.5
Clc1cccc(N2Cc3ccccc3-n3nncc3C2)c1,-45.6,-59.0,-16.5,-1.2
Brc1ccc2c(c1)-n1nncc1CN(CC1CCCCC1)C2,-14.4,-26.7,-2.3,0.4
Cc1ccccc1OP(=O)(Oc1ccccc1C)N1CCOCC1,-4.1,-19.1,0.4,-5.9
CCN1[C@@H]2c3ccc(-c4cccc(OC)c4)c(=O)n3C[C@H]1[C@H](CO)[C@H]2C(=O)OC,-3.3,4.2,-2.0,-2.6
COC(=O)C[C@@H]1CC[C@H]2NC[C@H](O)COC[C@@H]2O1,-0.4,-3.8,-9.2,-3.4
